S-ASM inh – human S-ASM enzyme inhibition; P17405; AID 504937; 340,000 tested, 0.006% active; placental ASM, HMU-PC fluorogenic substrate, 60 min; Potency, µM (series often up to 57.5 µM), inactives show at the highest dose activity change, negative = inhibition, hits mostly inhibitors; further: potency means the concentration at half of the fitted maximal effect
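HMU-PC0 cleavage (9 uM final) by human placental ASM, 60 min at 37 °C following 10 min compound exposure at RT; stopped at pH 10, fluorescence Ex 386/Em 447 nm.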
a7 integrin act – integrin-mediated muscular dystrophy alleviation activation | 350,000 tested, 0.064% active | alpha7betagal myoblasts, beta-gal FDG fluorescence, 48 h | Potency, µM (highest dose often 38.3 µM), for the others: top-dose activation, hits mostly activators;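 further: potency means the concentration at half of the fitted maximal effect; 100% = response of the positive control SU9516; nearly all actives have a fitted effect of over 60% in size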
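alpha7betagal+/- myoblasts (passage 13, 250/well) treated 48 h at 37C with compounds at 1:260 dilution of DMSO stock. Lysed, then beta-galactosidase activity read as FDG fluorescence (ex 480/em 540) after 30 min, with pre-read for autofluorescence.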
TCR activator – activates T cell receptor signaling; primary human leukocytes, anti-CD3, IL-2 HTRF, 48 h; Potency, µM (highest dose often 9.22 µM), for the others: at the top dose activation of IL-2 secretion, usual class: activators; 330,000 tested, under 10 active; further: % of control where 0% means no effect
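Primary human leukocytes incubated 48 hr with anti-CD3 beads plus compound, without co-stimulation. Secreted IL-2 measured by HTRF (europium cryptate/d2 anti-IL-2 pair, 320 nm excitation, 665 nm emission).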
Eya2 phos inh – inhibitors of human Eya2 phosphatase activity; O00167; 330,000 tested, 0.006% active; recombinant Eya2, OMFP fluorescence dephosphorylation (OMFP is methylfluorescein phosphate); Potency, µM (titrated, usually from 76.9 µM), without a hit: at the highest dose activity, negative = inhibition, usual class: inhibitors; AID 488837; further: potency means the concentration at half of the fitted maximal effect; on the % scale 0 is the no-effect control and ±100 the full control effect
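Eya2 (0.2 uM) preincubated 10 min at ambient with compound, then OMFP substrate added at 50 uM; 10 min reaction in 50 mM HEPES pH 7.5, 50 mM NaCl, 5 uM MgCl2, 0.05% BSA, 1 mM DTT. Fluorescence read at Ex 485/Em 525 nm.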
TSG101-PTAP inh – blocks PTAP/TSG101 interaction to inhibit HIV-1 budding; Q99816; Fluorescence polarization, FITC-PTAP peptide / Tsg101 binding; Potency, µM (series often up to 115 µM), without a hit: at the highest dose activity change, negative = inhibition, most hits filed as inhibitors; 340,000 tested, under 10 active; AID 493005; active means well fitted inhibition curve with a large enough effect in the main read-out, with a control signal flat, not every such curve was filed as active; inconclusive means small, poorly fitted or top-dose-only effect, or effect the other way, or a change in a side signal; inactive means no such curve, though single readings can be large or run the other way; further: potency means the concentration at half of the fitted maximal effect; % of control where 0% means no effect
Target sequence (Q99816 whole entry, looked up): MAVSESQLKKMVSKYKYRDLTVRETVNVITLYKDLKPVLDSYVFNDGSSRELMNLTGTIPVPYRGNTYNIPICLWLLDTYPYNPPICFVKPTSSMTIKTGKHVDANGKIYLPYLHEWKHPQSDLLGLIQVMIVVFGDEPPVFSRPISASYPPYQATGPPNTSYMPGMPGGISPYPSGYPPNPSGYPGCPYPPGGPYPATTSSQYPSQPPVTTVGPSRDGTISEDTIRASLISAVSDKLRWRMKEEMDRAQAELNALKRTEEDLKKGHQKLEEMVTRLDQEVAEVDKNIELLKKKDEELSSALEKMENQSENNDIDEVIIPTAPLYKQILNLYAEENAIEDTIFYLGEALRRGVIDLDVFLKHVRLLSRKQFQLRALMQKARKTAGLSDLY
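FP read-out: FITC-PTAP peptide, 50 nM final, binding Tsg101 binding domain, 10 uM final; 20 min, r.t.; 10 mM HEPES pH 7.5, 0.15 M NaCl, 0.01% Tween 20, 3 mM EDTA, 0.1 mM TCEP.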
A-T KAP1 phos – potential ataxia-telangiectasia treatments restoring KAP-1 phosphorylation | AID 485349 | […] A-T fibroblasts, KAP-1 phosphorylation AlphaLISA; neocarzinostatin DNA damage 30 min before lysis | 320,000 tested, 0.19% active | Potency, µM (series often up to 57.5 µM), for inactives: top-dose activation, hits mostly activators; further: potency means the concentration at half of the fitted maximal effect; % of control where 0% means no effect; nearly all actives have a fitted effect of over 45% in size
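hTERT-immortalized A-T patient fibroblasts ([…]), 500 cells/well in OPTI-MEM, 1% FBS, got compounds for 60 min, then NCS for 30 min at 37C. Lysates were then assayed for phospho-KAP-1 by AlphaLISA (anti-pKAP1 donor, anti-KAP1 acceptor beads), 6 hr at 25C.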
Chronic BCR inh – chronic active BCR signaling inhibition | 340,000 tested, 0.05% active | Potency, µM (top dose mostly 46.1 µM), for inactives: at the top dose ratio change, negative = lower green/red ratio, usual class: inhibitors | AID 493014 | ABC-DLBCL IkBa-CBG/CBR reporter, luminescence ratio, 4 h; active means well fitted inhibition curve with a large enough effect in the signal ratio, with a control signal flat, not every such curve was filed as active; inconclusive means small, poorly fitted or top-dose-only effect, or effect the other way, or a change in a side signal; the % refers to the signal ratio;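 further: potency means the concentration at half of the fitted maximal effect; plate controls were basal doxycycline-induced cells for no effect and cells given 10 µM MG132 for full effect; MG132 reads +100%, hits lower the ratio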
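Cell line TMD8 (human ABC DLBCL), stably expressing tet-inducible CBG68-IkBa fusion and CBR; IMDM/0.5% FBS; cpd up to 46 uM; dox induction, 4 h, 37C/5% CO2; dual luminescence; green/red ratio; MG132 control.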
Tb PFK block – blocks T. brucei phosphofructokinase. 330,000 tested, 0.17% active. O15648. Potency, µM (titrated, usually from 57.5 µM), without a hit: at the top dose activity, negative = inhibition, most hits filed as inhibitors. T. brucei PFK, ADP-Glo luminescence. AID 485367;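 further: potency means the concentration at half of the fitted maximal effect; 0% = uninhibited 1x PFK enzyme wells and -100% = no-enzyme wells; nearly all actives have a fitted effect of over 60% in size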
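In TEA buffer at pH 8.0 with 5 mM MgCl2, enzyme (1.25 nM) converted F6P (0.5 mM) and ATP (0.1 mM) for 45 min at room temperature. ADP product was read by luciferase luminescence.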
Numbers without * were called inactive; ? = inconclusive; nt = not tested or not shown; & = joins results of further samples; [ ] = another dose, or the depositor's remark. Unless noted, the call rests on the fitted dose curve; in most records, active means well fitted curve in the direction sought with a large enough effect; inconclusive means small, poorly fitted or top-dose-only effect, or another doubt; inactive means no such curve, though single readings can be large; an effect the other way counts as inactive or inconclusive. Not all compounds are listed, so the mix of outcomes need not match the whole.

1: BrCC(Br)(Br)Br
2: CCC(C(=O)OCCOCCN(CC)CC)c1ccccc1 (configuration not stated)
3: C[C@]12CCC(=O)C[C@@H]1CC[C@@H]1[C@@H]2CC[C@]2(C)[C@@H](O)CC[C@@H]12
4: O=C(Nc1nc2ccccc2n1CCN1CCCC1)c1ccc(Cl)cc1
5: O=C(CSc1nnc(-c2ccco2)n1Cc1ccccc1)NC(=O)NCc1ccccc1
6: Cc1ccc(N)c(C)c1
7: CC(=O)[C@H]1CC[C@H]2[C@@H]3CC[C@H]4C[C@H](O)CC[C@]4(C)[C@H]3C(=O)C[C@]12C
8: CC(NC(C)(C)C)C(=O)c1cccc(Cl)c1 (configuration not stated)

| compound no. | 1 | 2 | 3 | 4 | 5 | 6 | 7 | 8 |
| --- | --- | --- | --- | --- | --- | --- | --- | --- |
| Tb PFK block | 1% | -7% | 0% | -2% | 2% | -11% | 2% | -10% |
| a7 integrin act | nt | 13% | nt | -38%[inhibitor] | -26% | nt | nt | nt |
| TCR activator | 2% | 9% | 6% | 8% | 1% | 2% | 7% | -1% |
| A-T KAP1 phos | -1% | -5% | 6% | 9% | 13% | -7% | -17% | 13% |
| S-ASM inh | -4% | 9% | 3% | -1% | -2% | 4% | 1% | 5% |
| TSG101-PTAP inh | -1% | -1% | -1% | -4% | -8% | 0% | -7% | 1% |
| Chronic BCR inh | ? | 3% | -3% | ? | ? | 11% | ? | -11% |
| Eya2 phos inh | -3% | 0% | 2% | 15% | -2% | -6% | -3%&-3% | 2%&6% |

9: C[C@]12CCC(=O)C[C@H]1CC[C@@H]1[C@@H]2CC[C@]2(C)[C@@H](O)CC[C@@H]12
10: O=S(=O)(c1ccc(O)cc1)c1ccc(O)cc1
11: N#Cc1c(/N=C/c2ccc(O)cc2O)sc2c1C1CCN2CC1
12: CC1=C2C3OC(=O)C(C)C3CC[C@@]2(C)C=CC1=O (some centres not stated)
13: CN1CCN(C2=Nc3cc(Cl)ccc3Nc3ccccc32)CC1
14: CNCC[C@H](Oc1ccc(C(F)(F)F)cc1)c1ccccc1
15: C[C@]12CC[C@H]3[C@@H](CCC4=CC(=O)CC[C@@]43C)[C@@H]1CC[C@@H]2O
16: CCOCCN1CCN(c2nnc3n2-c2ccc(Cl)cc2C(c2ccccc2Cl)=NC3)CC1
17: CC[C@H](OC(C)=O)C(C[C@H](C)N(C)C)(c1ccccc1)c1ccccc1

| compound no. | 9 | 10 | 11 | 12 | 13 | 14 | 15 | 16 | 17 |
| --- | --- | --- | --- | --- | --- | --- | --- | --- | --- |
| Tb PFK block | 0% | 6% | 6% | 5% | 2% | 1% | 0% | 1% | -2% |
| a7 integrin act | nt | -4% | -13% | nt | nt | nt | nt | -11% | nt |
| TCR activator | nt | 0% | -5% | 9% | 1% | -10% | -14%&-1% | 1% | 7% |
| A-T KAP1 phos | 0% | 1% | -3% | 6% | 11% | 19% | 1% | -2% | 6% |
| S-ASM inh | nt | 0% | 13% | 3% | -1% | 2% | -1%&1% | -2% | -3% |
| TSG101-PTAP inh | nt | 2% | ? | -2% | -1% | -1% | 2%&-1% | 0% | -1% |
| Chronic BCR inh | -9% | ? | 2% | ? | ? | ? | 1% | 5% | ? |
| Eya2 phos inh | -32% | -1% | -1% | -1% | -1%&1% | -5%&-14% | -34% | -24% | -17% |

A different layout for nine compounds above.
Second line of a record: Tb PFK block | a7 integrin act | TCR activator | A-T KAP1 phos | S-ASM inh | TSG101-PTAP inh | Chronic BCR inh | Eya2 phos inh
6	Cc1ccc(N)c(C)c1
→ -11% | nt | 2% | -7% | 4% | 0% | 11% | -6%
7	CC(=O)[C@H]1CC[C@H]2[C@@H]3CC[C@H]4C[C@H](O)CC[C@]4(C)[C@H]3C(=O)C[C@]12C
→ 2% | nt | 7% | -17% | 1% | -7% | ? | -3%&-3%
8	CC(NC(C)(C)C)C(=O)c1cccc(Cl)c1 (configuration not stated)
→ -10% | nt | -1% | 13% | 5% | 1% | -11% | 2%&6%
9	C[C@]12CCC(=O)C[C@H]1CC[C@@H]1[C@@H]2CC[C@]2(C)[C@@H](O)CC[C@@H]12
→ 0% | nt | nt | 0% | nt | nt | -9% | -32%
10	O=S(=O)(c1ccc(O)cc1)c1ccc(O)cc1
→ 6% | -4% | 0% | 1% | 0% | 2% | ? | -1%
11	N#Cc1c(/N=C/c2ccc(O)cc2O)sc2c1C1CCN2CC1
→ 6% | -13% | -5% | -3% | 13% | ? | 2% | -1%
12	CC1=C2C3OC(=O)C(C)C3CC[C@@]2(C)C=CC1=O (some centres not stated)
→ 5% | nt | 9% | 6% | 3% | -2% | ? | -1%
13	CN1CCN(C2=Nc3cc(Cl)ccc3Nc3ccccc32)CC1
→ 2% | nt | 1% | 11% | -1% | -1% | ? | -1%&1%
14	CNCC[C@H](Oc1ccc(C(F)(F)F)cc1)c1ccccc1
→ 1% | nt | -10% | 19% | 2% | -1% | ? | -5%&-14%

Compound activity (PubChem BioAssay)
